AID504770 – E. coli YBA685 growth inhibition, screen for V. cholerae RctB inhibitors. E. coli YBA685 rctB-dependent plasmid, OD600 growth, 3 h; hits give low values. z-score (test concentration not listed). hit rate 0.27% among 130,000;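 active = z-score under -2 on both plates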;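 also: wells of about 30 µL received 100 nL stock; score is relative to mean and SD of the test wells; the first replicate is given; strong numbers were not always called active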
CapD inh – CapD enzyme inhibition | z-score (no concentration beside the values) | hit rate 0.23% among 140,000 | purified CapD enzyme, fluorescence intensity read-out; hits give low values; some hits fall short of the stated cut;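 active = z-score under -4 in either of two replicates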;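 also: stock transfer was 100 nL into about 40 µL; score is relative to mean and spread of the plate; one replicate is shown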
An asterisk follows results filed as active; / = no result given.

Sequence of screens – AID504770	CapD inh
O=C(NCCCN1CCCC1)c1ccc2c(c1)N(Cc1ccccc1F)C(=O)c1ccccc1S2=O (centres undefined)
  -0.65	-0.42
COc1ccc2c(c1)C(=NNC(=O)Nc1ccccc1)c1cc(OC)ccc1-2
  /	0.015
Nc1ccccc1SCc1noc(-c2cccs2)n1
  -0.85	-1.21
Cc1ccc2nc(SCC(=O)Nc3ccc(Br)cc3)[nH]c2c1
  /	-0.12
CC(C(=O)NCC1CCCO1)C1Sc2ccccc2N(Cc2ccccc2F)C1=O (centres undefined)
  0.2	-0.055
CCOc1ccc(NC23SCC(=O)C2CCc2ccccc23)cc1 (centres undefined)
  0.45	0.41
Cc1cc(C(F)(F)Cl)nc(-c2ccccc2)n1
  0.85	-0.02
O=c1cc(Sc2ccc(Cl)cc2)c2ccccc2o1
  -2.4	0.41
CCc1c(C)nn2cn[n+](Cc3ccccc3)c2c1[O-]
  1.75	-0.19
O=C(c1sc(=S)n2c1[nH]c(=O)c1ccccc12)N1CCCC1
  /	-0.16

Quoted at random: 2 compounds from above.
Sequence of screens – AID504770	CapD inh
O=C(c1sc(=S)n2c1[nH]c(=O)c1ccccc12)N1CCCC1
  /	-0.16
O=C(NCCCN1CCCC1)c1ccc2c(c1)N(Cc1ccccc1F)C(=O)c1ccccc1S2=O (centres undefined)
  -0.65	-0.42

Next part
Sequence of screens – AID504770	CapD inh
CC1Cc2ccccc2N1C(=O)CSCC(=O)O (centres undefined)
  1.35	0.405
Cc1cc(N=Cc2ccccc2O)no1
  0.8	-1.62
CCOC(=O)C1=C(C(F)(F)F)OC(N)=C(C#N)C1c1ccc(-c2ccccc2)cc1 (centres undefined)
  -0.5	8.4
O=C1CC(N2CCN(S(=O)(=O)c3ccc4c(c3)OCCO4)CC2)C(=O)N1c1cccc(C(F)(F)F)c1 (centres undefined)
  0	/
Cc1ccc(C(=O)Cc2ccccc2O)cc1
  -0.7	0.4
Cc1ccccc1NC(=O)Cn1nc(C)c2ccccc2c1=O
  0.45	0.05
CC(NC(=O)CCOc1ccccc1)c1ccc(-n2ccnc2)cc1 (centres undefined)
  0.5	/
CCOC(=O)c1ccc(NC(=S)NCCCN2CCCC2=O)cc1
  -0.1	0.025
COc1ccc(C2N=C(N3CCc4ccccc43)Nc3nc(C)cc(=O)n32)cc1 (centres undefined)
  -0.1	/
CC(c1ccccc1)N1CCN(C(=O)C(CCCN(C(=O)OC(C)(C)C)/C(N)=N/C(=O)OC(C)(C)C)NC(=O)OC(C)(C)C)CC1 (centres undefined)
  /	-0.42

Later entries.
Sequence of screens – AID504770	CapD inh
CC1Oc2ccccc2N(CC(=O)c2ccccc2)C1=O (centres undefined)
  -0.25	/
Cc1c(-c2nnc(Nc3ccccc3)s2)sc2nc3n(c(=O)c12)CCC3
  -0.6	/
Cn1c(CCC(=O)NCc2ccc(F)cc2)nc2cc(S(=O)(=O)N3CCCCC3)ccc21
  0.35	/
CCN(CC)CCNc1nc2c(c(=O)n(C)c(=O)n2C)n1Cc1c(Cl)cccc1Cl
  /	0.01
COc1ccc(N(C(=O)c2ccncc2)S(=O)(=O)c2ccc(OC)c(OC)c2)cc1
  1.55	-5.55*
CCc1cc(C(=O)Cc2nc3ccccc3s2)c(O)cc1O
  -0.6	3.99
O=C(CCC(=O)N1CCC(N(C2CC2)S(=O)(=O)c2ccccc2)CC1)NCCN1CCOCC1
  /	-0.095
N#CCSc1nc2ccccc2c(=O)n1CCCn1c(SCC#N)nc2ccccc2c1=O
  -0.3	0.085
CCc1ccc(NC(=O)N(C2CCCC2)C2CCN(C(C)=O)CC2)cc1
  -0.1	0.105
CC(C)c1c(C#N)c(N)nc2sc(C(=O)c3ccc(Br)cc3)c(N)c12
  /	-0.405

(more compounds)
Sequence of screens – AID504770	CapD inh
COc1cc(C)nc(Oc2ccc(OCCOc3ccccc3)nn2)n1
  0.25	/
CCc1cnc(NC(=O)CN2CC3CC(C2)c2cccc(=O)n2C3)s1 (centres undefined)
  1.35	-0.035
CCOc1ccsc1C(=O)NNC(=O)OCC1CCCCO1 (centres undefined)
  /	0.3
CCOc1ccc(N=C2SC(C(=O)Nc3cccc(OCC)c3)CC(=O)N2C)cc1 (centres undefined)
  /	0.21
CC(=O)Nc1ccc(NC(=O)c2cc(=O)[nH]c3ccccc23)cc1
  0.9	-0.5
N#CCSC1=Nc2ccccc2C2=NC(CCC(=O)NC3CCCCC3)C(=O)N12 (centres undefined)
  -0.6	-1.34
CCOc1ccc(Cl)cc1N
  1.4	/
COc1ccccc1C1Nc2ccccc2C(c2ccccc2)(c2ccccc2)O1 (centres undefined)
  /	-0.28
CCc1ccc(C(=S)N2CCOCC2)cc1
  -0.55	-0.365
COc1ccc(C2=NN(C(=O)c3cccs3)C(c3cccc(OC)c3OC)C2)cc1OC (centres undefined)
  /	1.43

(cont.)
Sequence of screens – AID504770	CapD inh
CC(C)c1ccc(/C=N/O)cc1
  -0.1	/
COCC(C)N1C(=Nc2cccnc2)SCC1(O)c1cc2ccccc2o1 (centres undefined)
  -0.4	/
CCCn1c(=O)c2c(C(=O)OCC)cc(-c3ccccn3)nc2n(CCC)c1=O
  -0.25	/
CC(=O)C1(C)CC2(CC(COCC(C)C)OC2=O)C(=O)O1 (centres undefined)
  /	0.08
Cc1cccc2c(N=O)c(O)n(CCc3ccccc3)c12
  -0.2	/
COc1ccc(NC(=O)NC2CCCc3ccccc32)cc1OC (centres undefined)
  -0.45	0.195
O=C(OC1CSc2nc3ccccc3n2C1)c1ccco1 (centres undefined)
  -0.55	/
Cc1nc(Cc2nnc(SCc3cc(=O)oc4cc5c(cc34)CCC5)o2)cs1
  -0.3	/
Cn1c(=O)c(-c2noc(-c3ccc(Cl)cc3)n2)cn(-c2ccccc2)c1=O
  -0.65	-0.12
Cc1ccc(-c2n[nH]c(=O)c3ccccc23)cc1S(=O)(=O)NCCN1CCOCC1
  -1.15	-0.125

Later entries:
Sequence of screens – AID504770	CapD inh
O=C(N/N=C/c1ccc(-c2ccc(Cl)c(C(=O)O)c2)o1)c1ccncc1
  -0.45	/
O/N=C1/C(c2ccccc2)=Nc2ncnn2C1c1ccccc1 (centres undefined)
  -0.1	/
c1ccc(-n2ncc3c(NCC4CCCO4)ncnc32)cc1 (centres undefined)
  -0.35	0.32
Cc1cc(C)n2nc(SC(C)C(=O)NC3CCCCCCC3)nc2n1 (centres undefined)
  -0.65	0.01
O=C(c1ccc2cc[nH]c2c1)N1CCN(C(=O)c2c(F)cccc2F)CC1
  /	0.415
COc1ccc(NC(=O)CCOc2ccccc2)cc1
  -0.35	0.24
CCOCCCNC1CC(C)CC(C)(C)C1 (centres undefined)
  -2.2*	/
COc1cccc2cc(C(=O)N3CCN(c4cc(Cl)ccc4C)CC3)c(=O)oc12
  0.45	/
CCNCc1ccc(-c2cccc(Cl)c2)o1
  -0.2	/
CCC(Sc1nc2ccccc2c(=O)n1NC(=O)COc1ccc(Cl)cc1Cl)C(=O)N1CCOCC1 (centres undefined)
  /	-0.31

More entries follow:
Sequence of screens – AID504770	CapD inh
O=C(c1ccccc1)C(CC(=O)N1CCOCC1)c1ccccc1 (centres undefined)
  0.45	-0.265
CC(C)S(=O)(=O)c1nnn(-c2cc(Cl)cc(Cl)c2)c1N
  -1.55	-0.235
C=CCn1c(SCC(=O)Nc2ccc3c(c2)OCCO3)nc2scc(-c3ccc(OC)cc3)c2c1=O
  /	-0.3
Cc1ccc(C2CC(=O)N(C)c3c2c(C)nn3-c2nc3ccccc3s2)cc1 (centres undefined)
  0.1	0.465
O=C(NCc1cccc(C(F)(F)F)c1)c1cccc2cc[nH]c12
  /	3.93
CC(=O)c1ccc(C#CCO)s1
  /	-1
C=CCN(CC=C)CC(O)Cn1c(-c2ccccc2)c(-c2ccccc2)c2ccc3ccccc3c21 (centres undefined)
  /	15.8
CCOc1ccc(NC(=O)c2ccc(N3CC4CC(C3)c3cccc(=O)n3C4)c(NC(=O)/C=C/c3ccccc3)c2)cc1 (centres undefined)
  /	0.04
O=C(N/N=C/c1ccc(Cl)c(F)c1)c1ccc(OC(F)(F)F)cc1
  /	0.78
CC(=O)Nc1ccccc1-c1nc2cc(C#N)c(C#N)cc2[nH]c1=O
  -0.15	/

Single records (already shown):
Shown for CCc1c(C)nn2cn[n+](Cc3ccccc3)c2c1[O-] : AID504770: 1.75; CapD inh: -0.19
Shown for Cn1c(CCC(=O)NCc2ccc(F)cc2)nc2cc(S(=O)(=O)N3CCCCC3)ccc21 : AID504770: 0.35; CapD inh: /
Shown for COc1ccc(C2=NN(C(=O)c3cccs3)C(c3cccc(OC)c3OC)C2)cc1OC (centres undefined) : AID504770: /; CapD inh: 1.43

(further entries)
Sequence of screens – AID504770	CapD inh
CC1=C(C#N)C(c2ccc3c(c2)OCO3)C2=C(CCCC2=O)N1 (centres undefined)
  -0.15	31.2
CCn1c(=O)c(CCC(=O)NCc2ccc3c(c2)OCO3)c(C)c2c(C)nn(-c3cccc(C)c3)c21
  -0.2	0.17
COc1ccc2oc(=O)c(C(=O)n3ccnc3C)cc2c1
  1.45	17.7
Cc1cc(C)n(CCc2nc3c4ccccc4n(Cc4ccc(Cl)cc4)c(=O)n3n2)n1
  0.3	-0.175
COc1cccc(CN2C(=O)NC3(CCSC3)C2=O)c1 (centres undefined)
  0	/
Cc1cc(OCC(O)CN(C(C)C)C(C)C)c(C(C)C)cc1Cl (centres undefined)
  -0.5	/
O=C1CC(c2ccc(F)cc2)CC2=C1C(c1ccccc1)N=C(Nc1nc3ccccc3o1)N2 (centres undefined)
  -0.8	3.36
CCOC(=O)N1CCC(NC(=O)c2ccc3snnc3c2)CC1
  1.05	-0.51
Oc1ccccc1-c1nc2ccccc2[nH]1
  /	70.1
ClCC1=Nc2cccc3cccc(c23)N1
  -0.35	-1.96

(more compounds)
Sequence of screens – AID504770	CapD inh
O=C(NCCN1CCCC1)c1ccco1
  0.15	/
COc1cccc(C2NC(=O)NC(C)=C2C(=O)Nc2ccccc2C)c1OC (centres undefined)
  1.75	/
C=CCc1c(C)[nH]c2c(Cl)cccc2c1=O
  -0.35	1.49
CC(=O)NC(=O)c1cc2c(ccc3ccccc32)oc1=Nc1ccc(C(C)=O)cc1
  /	2.33
CN(C)S(=O)(=O)c1cccc(C(=O)OCC(=O)NC2CCCC2)c1
  -0.4	/
Cc1noc(C)c1COC(=O)CN(C)S(=O)(=O)c1ccc(Cl)cc1
  -0.1	/
O=C(N/N=C/c1ccccc1O)c1c[nH]c2ccccc12
  0.8	/
CC(C)(C)c1ccc(-c2noc(-c3ccno3)n2)cc1
  -0.05	0.745
CCN1Cc2cccc(CNc3cc(C)cc(C)c3)c2C1
  -0.25	2.62
CC1CCc2c(sc3nc(-c4ccc(Cl)cc4)cn23)C1 (centres undefined)
  2.15	-0.775

Later entries.
Sequence of screens – AID504770	CapD inh
Cc1onc(-c2ccccc2)c1C(=O)NCc1cc(Cl)cc(Cl)c1
  0.35	0.02
CC(=O)c1ccc(Sc2ccccc2)cc1
  /	-0.945
CCN(C(=O)c1ccco1)C1C2CC3CC(C2)CC1C3 (centres undefined)
  -0.4	0.46
O=C(NNC(=O)c1ccnc(Cl)c1)OCc1cccc(OCc2ccccc2)c1
  /	-0.395
CCN(CC)S(=O)(=O)N1CCC(C(=O)N2CCCCCC2)CC1
  -0.1	0.575
CC(=O)Oc1cccc2ccc(C#N)nc12
  -0.3	6.79
COc1ccc(/C=N/NC(=S)NCC2CCCO2)cc1 (centres undefined)
  /	-2.26
COc1ccc(C2CC(=O)C3=C(C2)NC(C)=C(C(=O)OC2CCCC2)C3c2ccc(OC)c(OC)c2)cc1OC (centres undefined)
  /	18.2
Cc1onc(-c2c(F)cccc2Cl)c1/C(N)=N/O
  -1.4	0
O=C1OC(c2ccccc2)=N/C1=C/c1cccs1
  /	-0.09

More entries
Sequence of screens – AID504770	CapD inh
CC1CCC2[C@](C)(CO)[C@@H](O)CC[C@]2(C)[C@@]12CCC1(CCOC1)O2 (some centres undefined)
  -0.45	1.31
Cc1ccc(S(=O)(=O)c2ccc(N/N=C/c3c(O)n(C)c(=O)n(C)c3=O)cc2)cc1
  -0.2	/
O=C(NCCCN1CCN(Cc2ccccc2)CC1)c1ccc(C(F)(F)F)cc1
  -1.5	-0.34
O=S(=O)(CCN1CCOCC1)c1ccc(F)cc1
  0.5	0.72
O=C(O)C1CCCCN1Cc1ccco1 (centres undefined)
  -0.15	/
N#CC(C(=O)N1CCCCC1)C(CC(=O)c1ccccc1)c1cccc(Br)c1 (centres undefined)
  0.15	0
Cc1ccc(NC(=O)CSC2=C(C#N)C(c3cccs3)C3=C(CCCC3=O)N2)cc1Cl (centres undefined)
  /	2.88
CN(CCC#N)C(=O)c1ccc2c(c1)N(Cc1cccc(Cl)c1)C(=O)c1ccccc1S2=O (centres undefined)
  0.1	-1.02
Cc1ccc(N2C(=O)CS(=O)(=O)C2c2ccccc2F)cc1C (centres undefined)
  /	-0.06
CCOC(=O)c1c(C)nn(-c2ccc(NC(=O)C(C)(C)C)cc2)c1C
  -0.95	0.275

Part of the list above in order of molecular weight, high to low.
Sequence of screens – AID504770	CapD inh
Cc1ccc(NC(=O)CSC2=C(C#N)C(c3cccs3)C3=C(CCCC3=O)N2)cc1Cl (centres undefined)
  /	2.88
Cc1ccc(S(=O)(=O)c2ccc(N/N=C/c3c(O)n(C)c(=O)n(C)c3=O)cc2)cc1
  -0.2	/
CC1CCC2[C@](C)(CO)[C@@H](O)CC[C@]2(C)[C@@]12CCC1(CCOC1)O2 (some centres undefined)
  -0.45	1.31

These rows are one share of the data; count on the stated rates, not on these rows.
